RecA intein inh: Mtb RecA intein splicing inhibition; cell-free RecA intein splicing, fluorescence; P9WHJ3; 0.75% of 290,000 active; AID 2221; inhibition, %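 (about 9 µM by stock and volumes)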; in the data active = inhibition above about 30%;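 note: 0% = vehicle wells and 100% = reference inhibitor control wells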
Target sequence (P9WHJ3 whole entry, looked up): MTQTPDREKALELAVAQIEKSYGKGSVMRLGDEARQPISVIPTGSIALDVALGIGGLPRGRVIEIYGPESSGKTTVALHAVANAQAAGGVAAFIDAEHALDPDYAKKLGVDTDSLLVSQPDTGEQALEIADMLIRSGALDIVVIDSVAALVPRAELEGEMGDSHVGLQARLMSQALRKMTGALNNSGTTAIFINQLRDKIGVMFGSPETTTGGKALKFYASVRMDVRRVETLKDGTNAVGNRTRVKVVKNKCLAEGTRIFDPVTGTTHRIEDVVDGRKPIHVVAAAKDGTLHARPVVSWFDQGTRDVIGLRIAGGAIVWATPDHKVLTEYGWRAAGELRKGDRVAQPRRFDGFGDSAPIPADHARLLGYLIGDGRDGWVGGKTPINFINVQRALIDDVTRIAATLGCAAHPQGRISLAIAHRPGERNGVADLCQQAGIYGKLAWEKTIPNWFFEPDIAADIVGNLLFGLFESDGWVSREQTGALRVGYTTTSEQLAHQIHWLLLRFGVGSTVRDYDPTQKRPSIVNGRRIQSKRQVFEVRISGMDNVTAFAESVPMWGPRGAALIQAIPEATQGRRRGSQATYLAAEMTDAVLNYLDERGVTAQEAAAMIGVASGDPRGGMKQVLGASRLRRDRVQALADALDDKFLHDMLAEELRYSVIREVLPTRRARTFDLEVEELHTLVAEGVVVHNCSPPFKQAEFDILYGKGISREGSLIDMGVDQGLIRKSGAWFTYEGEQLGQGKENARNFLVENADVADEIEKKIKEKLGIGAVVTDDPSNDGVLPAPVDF
YopH PTP inh: inhibitors of Yersinia enterocolitica YopH tyrosine phosphatase; fluorescence Ex485/Em525; AID 898; 0.16% of 140,000 active; inhibition, %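 (about 10 µM by stock and volumes)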;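 active = inhibition of 50% or more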;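 note: controls were vehicle for no effect and minimum signal wells for full effect; inactives centre near -20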
Arbovirus inh: arbovirus infection inhibition; 0.37% of 200,000 active; inhibition, % at 10 µM; arbovirus infection cell-based antiviral screen;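 active = inhibition from about 30%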;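 note: bluetongue infection of BSR cells; cell survival read as ATP light after 72 h; 0% = infected wells without compound and 100% = uninfected wells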
Mtb bLac sens: beta-lactam sensitization of Mtb H37Rv; 0.27% of 330,000 active; M. tuberculosis H37Rv growth with meropenem, percent inhibition; hits of this screen are not shown here; inhibition, % at 25 µM;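 active = about 74% or more and at least 40 points above the plate without the antibiotic, then above 30% in a dose series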;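 note: growth measured after seven days incubation then overnight dye step; 0% = bacteria only wells and 100% = bacteria with antibiotic; twin plates without the antibiotic show which effects depend on it; some results filed as inactive read as strong as hits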
Mtb H37Rv: M. tuberculosis H37Rv growth inhibitors, H37Rv strain (AID 1626) | M. tuberculosis H37Rv growth inhibition; higher % means a stronger effect | one-dose inhibition, % at 10 µM; IC50 in µM for titrated hits | 0.95% of 220,000 active;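 active = confirmed in a dose series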;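 note: bacteria incubated seven days before Alamar blue readout; 0% = bacteria only wells and 100% = bacteria with antibiotic wells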
Arbovirus inh repeat: also measured in Arbovirus inh; calls as there; inhibition, %; measured here: 10K subset replicate screen; many hits read low in the repeat;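 first of two repeat runs on a subset; 0% = infected and 100% = uninfected wells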
Numbers without * were called inactive; . = no result given; & = joins results of further samples. Some of the compounds tested; the hit share may differ from the screen's.

SMILES | RecA intein inh | YopH PTP inh | Arbovirus inh | Mtb bLac sens | Mtb H37Rv | others
OC[C@H]1O[C@@H](n2cnc3c(Nc4ccccc4)ncnc32)[C@H](O)[C@@H]1O | -1.4 | -23 | -2 | -3 | 2%
Cn1cnnc1Sc1cc(N2CCNCC2)ccc1[N+](=O)[O-] | -1.5 | . | . | 4 | -18%
CN(C)Cc1c(C(=O)N/N=C/c2cccnc2)nnn1-c1nonc1N | -1.7 | . | . | -1 | .
O=C(CCc1ccccc1)NNC(=O)COc1ccc([N+](=O)[O-])cc1 | -1.5 | . | . | -9 | .
CCn1c(SCC(=O)Nc2nc(C)c(C)s2)nc2cccnc21 | -0.5 | -23 | 9 | -10 | .
COc1ccc(-n2ncc3c2CC(C)(C)CC3NC(=O)c2ccc(OC)o2)cc1 (stereo not drawn) | 3.2 | . | . | 13 | .
O=S(=O)(Nc1ccccc1N1CCCCC1)c1ccc(Cl)s1 | 7.1 | -12 | 9 | 0 | 9%
O=C(O)CSc1nc2ccccc2s1 | 0.4 | . | . | 4 | -3%&4%
COCCC(=O)Nc1ccc2c(c1)CN(C(=O)CSC)CC2 | -0.1 | . | . | -1 | 0%
CCOc1ccccc1NC1=C(Cl)C(=O)N(Cc2ccccc2)C1=O | 13 | -19 | -8 | -1 | 10%
COc1ccccc1C(=O)NCCC(=O)NCCC12CC3CC(CC(C3)C1)C2 | 5.7 | . | . | 8 | .
CCOC(=O)C1=C(C)Nc2nc(C)nn2C1c1ccc(C)cc1 (stereo not drawn) | -0.4 | -34 | 3 | -2 | . | Arbovirus inh repeat=-1
Cc1ccc(S(=O)(=O)NC(=O)Nc2nccs2)cc1 | -0.6 | . | . | -6 | -12%
COC(=O)C1CCCCN1C(=O)c1cccc(OC2CCN(C(=O)C3CC3)CC2)c1 (stereo not drawn) | -2.0 | . | . | -4 | .
CCOc1cc(/C=N/NC(=O)c2nn(C)cc2Br)ccc1OCc1ccccc1 | -2.2 | -25 | 10 | 4 | 5%
CCC(Sc1nc(C)cc(=O)[nH]1)C(=O)Nc1nc(-c2ccccc2)cs1 (stereo not drawn) | 7.5 | -31 | 5 | 38 | -5%
C[C@H]1CN=C2N(CCNC(=O)CCC3CCCCC3)[C@H](Cc3ccc(O)cc3)CN21 | -1.3 | . | 0 | 2 | 2%
CN(Cc1ccc(OC(F)F)cc1)Cc1nc2c(Br)cc(Br)cc2c(=O)[nH]1 | -1.0 | . | 7 | -5 | 6%
Cc1ccc2c(C)nc(N/C(N)=N/S(=O)(=O)c3ccc([N+](=O)[O-])cc3)nc2c1 | -0.3 | -24 | -13 | 3 | 13%
CCOc1ccccc1N1CCN(c2ncnc3scc(-c4ccc(OC)cc4)c23)CC1 | 9.1 | . | . | -5 | .
O=C(Nc1cccc(S(=O)(=O)N2CCCCC2)c1)C1CC(=O)N(Cc2ccco2)C1 (stereo not drawn) | -1.6 | . | -3 | 0 | -3%
COc1ccc(-c2nnc(OCc3ccccc3)c3ccccc23)cc1 | -2.8 | -50 | 8 | 9 | 7%
Cc1cc(C)n2cc(CSc3ncccc3C(=O)O)nc2n1 | -0.7 | -17 | 3 | -5 | 2%
CC(=O)N1N=C(c2ccco2)CC1c1ccc(Br)cc1 (stereo not drawn) | -0.3 | -26 | 1 | 3 | 0%
O=C(O)/C=C/C(=O)N1CCN(C(=O)/C=C/C(=O)O)CC1 | -1.6 | -17 | 0 | -3 | -8%
O=C(O)c1ccc(N/N=C/c2cn(-c3ccccc3)nc2-c2cccs2)cc1 | -0.1 | . | -3 | 31 | 18%
COc1ccc(OC)c(NC(=O)Cn2c(CCC(=O)O)ccc2-c2cccs2)c1 | . | -5 | -2 | 1 | 2%
COc1ccc(C(=O)NC2CC3CCCC(C2)N3CC(C)C)cc1 (stereo not drawn) | 0.1 | . | . | -8 | .
O=C(NCC1(c2ccccc2)CCCC1)c1ccccc1 | 2.0 | -24 | -4 | -1 | 3%
COc1ccccc1C(=O)NC(=S)Nc1cccc2cc(O)ccc12 | 13 | . | . | 38 | .
COc1cc(CNn2cn[nH]c2=S)cc(Cl)c1OCc1ccc(F)cc1 | -1.4 | -22 | -3 | 6 | 4%
Cc1ccc(C2C(=O)NC(=O)NC2=O)cc1 | -1.3 | . | . | -3 | .
Cc1c2ccccc2cc[n+]1CCCS(=O)(=O)[O-] | -0.2 | . | 3 | 7 | 6%
O=c1onc(-c2ccc(Cl)cc2Cl)n1-c1cccnc1 | . | . | . | -5 | -13%
COc1ccc(CNC(=O)CCCC(=O)Nc2cccc(Br)c2)cc1 | -2.0 | . | . | -1 | .
C[C@]12CCC3C(CC=C4C[C@@H](O)CC[C@@]43C)C1CCC2[C@]1(C)CCC(=O)O1 (stereo partly drawn) | 1.2 | 6 | 6 | 3 | 9%
O=C(COc1ncnc2cc([N+](=O)[O-])ccc12)NC1CCCCC1 | -4.8 | . | . | -11 | 2%
CC(=O)Nc1nonc1-c1nc2ccccc2n1CC1CC1 | -7.5 | -15 | 2 | 44 | -4%
O=C(CCNS(=O)(=O)c1ccccc1)Nc1ccccc1 | -1.4 | . | . | 6 | .
CCOc1ccc(/C(O)=C2/C(=O)C(=O)N(CCOCCO)C2c2cccnc2)cc1 (stereo not drawn) | -0.4 | -47 | 2 | 0 | -17%
COc1cccc(NC(=O)CNS(=O)(=O)c2ccc(Cl)cc2)c1 | 1.8 | -28 | 2 | -3 | -1%
CCOC(=O)C1CCN(C(=O)Nc2ccc3nc(C)c(C)nc3c2)CC1 | -0.4 | -31 | 3 | -6 | 2%
Nc1c(-c2ccccc2)cnn1-c1cccc(Cl)c1 | 4.1 | . | . | 2 | .
O=C(NCCCN1CCOCC1)c1c(O)c2cc(Br)cc(Br)c2[nH]c1=O | . | 28 | . | 100 | .
COc1cccc(CNC(=O)Cn2ncc3c(=O)oc4ccccc4c32)c1 | 0.0 | . | . | 2 | 2%
CCn1cc(S(=O)(=O)NCCc2ccc(OC)c(OC)c2)cn1 | -0.4 | . | . | -10 | .
CCNc1nc(Oc2ccc(OC)cc2)cc(C(F)(F)F)n1 | -2.4 | . | -9 | -14 | 8%
COC(=O)c1sccc1NC(=O)Cc1ccc(OC)c(OC)c1 | -1.5 | -31 | 11 | 1 | 4%
CC(C)Cn1c(N)c(C(=O)CSc2nnnn2C)c(=O)n(C)c1=O | -1.7 | 1 | 1 | -8 | -4%
Cc1ccc(CS(=O)(=O)CCC(=O)NCCN2CCCCC2C)cc1 (stereo not drawn) | -1.9 | -46 | -4 | -14 | 0%
O=C(Cc1c[nH]c2ccccc12)Nc1ccccc1N1CCOCC1 | -10 | . | -2 | -4 | -10%
CC(=O)N(c1ccc(C(C)C)cc1)C1C=CS(=O)(=O)C1 (stereo not drawn) | -1.7 | -8 | -5 | -17 | 1%
CN(CCC#N)C(=O)COC(=O)c1nn(-c2ccccc2)c(=O)c2ccccc12 | -1.9 | . | 2 | 1 | -7%
O=C(Cc1ccccc1)NNC(=O)Nc1ccccc1 | 0.0 | . | 2 | 9 | -8%
CCOC(=O)c1sc(-c2ccccc2)cc1N | . | -3 | 5 | -13 | -5%
COc1cccc(CNS(=O)(=O)c2ccc3c(c2)N(C(C)=O)CCS3)c1 | -1.4 | . | . | 11 | .
Cc1nn2cc(-c3ccc(Cl)cc3)nc2s1 | 1.3 | -49 | 2 | 9 | -1%
Cc1ccc(-c2c(C(=O)N/N=C/c3ccc(C)o3)nnn2-c2nonc2N)cc1 | 1.7 | . | . | 5 | .
NS(=O)(=O)c1ccc(NC(=O)COC(=O)C23CC4CC(CC(C4)C2)C3)cc1 | -5.7 | 9 | 13 | 2 | 6%
CC(OC(=O)c1ccco1)C(=O)NCc1cccs1 (stereo not drawn) | -3.0 | -43 | 0 | -1 | -6%
Next section:
SMILES | RecA intein inh | YopH PTP inh | Arbovirus inh | Mtb bLac sens | Mtb H37Rv | others
COc1ccc(NC(=O)CC(C)=O)c(OC)c1 | -0.9 | . | . | . | -9%
COc1cccc(NC(=O)Nc2nnc(CC(=O)Nc3ccccc3)s2)c1 | -3.1 | . | . | -2 | -15%
COCCN(CCOC)S(=O)(=O)c1ccc(OC)cc1 | 3.4 | -1 | 1 | -5 | 9%
CC(C)=CCc1cc([C@@H]2CC(=O)c3ccc(O)c(CC=C(C)C)c3O2)ccc1O | 17 | . | . | -9 | -4%
COc1cc(C)c(Cl)c(C)c1S(=O)(=O)NCc1cccnc1 | 3.6 | -29 | 0 | 5 | -4%
O=C(CS(=O)(=O)c1ccc2ccccc2c1)N1CCCCCC1 | 3.6 | . | 13 | -8 | .
COc1ccc(CN(CCNC(=O)CCCCC(=O)NCCN(Cc2ccc(OC)cc2)C(C)C)C(C)C)cc1 | -1.7 | . | . | -5 | .
N/C(=N\OC(=O)COc1ccc(Br)cc1Cl)c1ccncc1 | . | -8 | -6 | 6 | 2%
COc1ccc(-n2c(Cc3cccn3C)nnc2SCC(=O)Nc2ccc3c(c2)OCO3)cc1 | 0.1 | -13 | -5 | -1 | 4%
N#Cc1ccccc1/C=C/C(=O)N1CCOCC1 | -0.1 | . | 2 | 4 | -6%
NCCNC[C@@H]1COC2(CCCCCCCCCCC2)O1 | . | . | . | -11 | 2%
Cc1noc(C)c1CSc1nnc(-c2c[nH]c3ccccc23)n1-c1ccc(Cl)cc1 | -0.3 | -3 | -3 | 0 | -5%
CCN(CC)CCCN=Cc1c(O)n(-c2cccc(C)c2)c(=O)c2ccccc12 | -1.4 | . | . | -4 | -12%
COC(=O)c1ccccc1NC(=O)Cn1nc(C(F)(F)F)c2c1CCC2 | 2.7 | -39 | -7 | -3 | 5%
COc1ccc(OC)c2nc3c(cc12)CCC3 | -1.7 | . | . | 8 | .
CCOc1ccc2nc(Cl)sc2c1 | 1.3 | . | 13 | -1 | -3%
N#Cc1c(N)c(C#N)c(-c2ccc(O)cc2)c2c1CCCC2 | 13 | -47 | 4 | -4 | 0%
CC(C)CC(=O)Nc1c(C(=O)N2CCN(Cc3ccccc3)CC2)oc2ccccc12 | 1.3 | . | . | 8 | .
O=C(CCn1c(=S)oc2ccccc21)NC1CCCCCC1 | 1.3 | . | . | -4 | -6%
Cc1ccc(NC(=S)NNC(=O)c2cn(C)nc2C)cc1 | -0.3 | -34 | 6 | -7 | -5%
O=C(c1cc(-c2cccnc2)nc2ccc(Cl)cc12)N1CCN(S(=O)(=O)c2cccs2)CC1 | 10 | . | . | 6 | .
CCOc1ccc(NC(=O)CCC(=O)NNC(=O)Nc2ccc(Cl)cc2)cc1 | -0.8 | . | 7 | -3 | 12%
O=c1c2c3c(sc2n2cnnc2n1-c1ccccc1)N(Cc1ccccc1)CCC3 | -2.5 | -19 | 14 | 5 | -1%
COc1cccc(NC(=S)N(CCCN2CCCC2)Cc2ccco2)c1 | -5.2 | . | 7 | 15 | -14%
COCCNC(=O)CSc1nc2cc3c(cc2c(=O)n1Cc1ccco1)OCO3 | -0.3 | 15 | 1 | -6 | -1%

Looked up one by one from the list above, 2 records:
SMILES | RecA intein inh | YopH PTP inh | Arbovirus inh | Mtb bLac sens | Mtb H37Rv | others
COc1cccc(NC(=S)N(CCCN2CCCC2)Cc2ccco2)c1 | -5.2 | . | 7 | 15 | -14%
O=C(c1cc(-c2cccnc2)nc2ccc(Cl)cc12)N1CCN(S(=O)(=O)c2cccs2)CC1 | 10 | . | . | 6 | .

Molecules from the list above that have a Cl atom, in the order listed:
SMILES | RecA intein inh | YopH PTP inh | Arbovirus inh | Mtb bLac sens | Mtb H37Rv | others
O=S(=O)(Nc1ccccc1N1CCCCC1)c1ccc(Cl)s1 | 7.1 | -12 | 9 | 0 | 9%
CCOc1ccccc1NC1=C(Cl)C(=O)N(Cc2ccccc2)C1=O | 13 | -19 | -8 | -1 | 10%
COc1cc(CNn2cn[nH]c2=S)cc(Cl)c1OCc1ccc(F)cc1 | -1.4 | -22 | -3 | 6 | 4%
O=c1onc(-c2ccc(Cl)cc2Cl)n1-c1cccnc1 | . | . | . | -5 | -13%
COc1cccc(NC(=O)CNS(=O)(=O)c2ccc(Cl)cc2)c1 | 1.8 | -28 | 2 | -3 | -1%
Nc1c(-c2ccccc2)cnn1-c1cccc(Cl)c1 | 4.1 | . | . | 2 | .
Cc1nn2cc(-c3ccc(Cl)cc3)nc2s1 | 1.3 | -49 | 2 | 9 | -1%
COc1cc(C)c(Cl)c(C)c1S(=O)(=O)NCc1cccnc1 | 3.6 | -29 | 0 | 5 | -4%
N/C(=N\OC(=O)COc1ccc(Br)cc1Cl)c1ccncc1 | . | -8 | -6 | 6 | 2%
Cc1noc(C)c1CSc1nnc(-c2c[nH]c3ccccc23)n1-c1ccc(Cl)cc1 | -0.3 | -3 | -3 | 0 | -5%
CCOc1ccc2nc(Cl)sc2c1 | 1.3 | . | 13 | -1 | -3%
O=C(c1cc(-c2cccnc2)nc2ccc(Cl)cc12)N1CCN(S(=O)(=O)c2cccs2)CC1 | 10 | . | . | 6 | .
CCOc1ccc(NC(=O)CCC(=O)NNC(=O)Nc2ccc(Cl)cc2)cc1 | -0.8 | . | 7 | -3 | 12%

Source: PubChem (several laboratories)
